Sa ugtP lethal = kills S. aureus RN4220 lacking UgtP; S. aureus RN4220 ugtP deletion, OD600 growth, 16 h; some inactives read as strong as hits; growth inhibition, % (no concentration beside the values); actives 0.54% (n = 330,000);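 active means z-score under -3 and OD600 up to 0.15 on both plates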;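 further: plate controls were untreated wells for no effect and antibiotic for full effect; wells of about 80 µL received 100 nL stock; the first replicate is given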
Autofluor counter = counter-screen for toxin protease inhibitors: compound fluorescence; compound autofluorescence counterscreen, microsphere flow cytometry; hits give high values; fluorescence intensity (no concentration beside the values); actives 3.1% (n = 360,000);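 active means at least 3 SD above the mean of all compounds, about 16000 in these data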;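 further: 100 nL of 1 mM stock went into each well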
RN4220 kill = S. aureus RN4220 growth inhibition; OD600, 16 h; inhibition, % (concentration not given with the values); actives 0.33% (n = 330,000);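 active means z-score of -3 or lower and OD600 up to 0.18 on both plates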;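 further: plate controls were untreated cells for no effect and reference antibiotic for full effect; stock transfer was 100 nL into about 80 µL; one replicate is shown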
Mtb hypoxia inh = Mtb hypoxia fluorescent reporter inhibition. actives 0.1% (n = 300,000). M. tuberculosis hypoxia-regulated fluorescent reporter, fluorescence. fluorescence inhibition, % (test concentration not listed);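 active means 35 to 45% if threefold the growth effect, above 45% if 1.5-fold the growth effect; inactive means the rest, general growth blockers included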;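 further: wells of about 50 µL received 100 nL stock; 0% = vehicle wells and 100% = reference inhibitor wells; whole bacteria with a GFP reporter of the hypoxia response; strong numbers were not always called active; many hits fall short of the cut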
PrP 5UTR inh = suppresses PrP 5' UTR mRNA reporter expression. cell-based PrP 5' UTR mRNA reporter, plate reader. inhibition, % (concentration not given with the values). actives 0.35% (n = 340,000);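 active means every replicate at 50% or more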;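 further: 0 = median of the neutral control wells; tested in H4 reporter cells; numbers are from one replicate; inactives centre near -14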
BJeLR lethal = BJeLR cell viability loss. BJeLR (HRASV12) viability, CellTiter-Glo ATP luminescence, 48 h; reference of the scale not given here. actives 0.17% (n = 300,000). AID 1554. inhibition, % (concentration not given with the values);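 active means replicate mean above 50%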;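 further: 50 nL library stock added to about 25 µL; numbers are from one replicate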
Mtb hypoxia inh growth = further read-out of Mtb hypoxia inh, marked with its call; growth inhibition, %; measured here: M. tuberculosis growth (absorbance);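 0% = vehicle and 100% = reference antibiotic; read after six days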
* hit, by the source's call; x = not tested or not shown.

1: COc1ccccc1NC(=O)C1=C(C)Nc2ncnn2C1c1ccc(C)o1 (stereo not drawn)
2: C=CCn1c(CCNC(=O)c2ccccc2F)nnc1SCC(=O)Nc1nc2ccccc2s1
3: O=C(O)CC1c2cc(F)ccc2S(=O)(=O)N1C1CCCC1 (stereo not drawn)
4: CN(C)c1cc[n+](CC(=O)Nc2ccc([N+](=O)[O-])cc2Cl)cc1
5: O=C(N/N=C/c1ccncc1)c1cccc(N/N=C/c2ccncc2)c1
6: Cc1ccc(-n2c(O)c(C=NCCC3=CCCCC3)c(=O)[nH]c2=O)cc1

Assay by compound | 1 | 2 | 3 | 4 | 5 | 6
Autofluor counter | 2687 | 10732 | x | 4373 | 4108 | 4271
Mtb hypoxia inh growth | 11 | 8 | 8 | 11 | x | 2
Sa ugtP lethal | -4 | -8 | -2 | -2 | x | -9
RN4220 kill | -0.4 | -2.1 | 1.3 | 6.8 | x | 0.6
Mtb hypoxia inh | -3 | 2 | 0 | 6 | x | -1
PrP 5UTR inh | -14 | x | x | -14 | 72* | -9
BJeLR lethal | 1 | 0 | x | 2 | 1 | -3

7: NC(=O)c1c(N)sc2c1CCCCC2
8: Cn1cccc1C=NNC(=O)Cc1cccc2ccccc12
9: CCCNC(=S)NC1CC2CCCC(C1)N2CC(C)C (stereo not drawn)
10: CCN(CC)S(=O)(=O)c1cccc(C(=O)NCC(=O)OCC(=O)NCc2ccccc2)c1
11: CCOc1ccc(NC(=O)CCNc2c(N3CCCC3)c(=O)c2=O)cc1
12: O=C(Nn1c(-c2ccncc2)nc2ccccc2c1=O)c1ccc([N+](=O)[O-])cc1Cl

Assay by compound | 7 | 8 | 9 | 10 | 11 | 12
Autofluor counter | 3254 | x | 9079 | 4049 | 2663 | 4586
Mtb hypoxia inh growth | 6 | 10 | 4 | 9 | x | 2
Sa ugtP lethal | -6 | -8 | -3 | -4 | -9 | 7
RN4220 kill | -4.7 | 5.6 | 3.1 | 6.8 | -4.7 | 6.9
Mtb hypoxia inh | -2 | 4 | -4 | 15 | x | -4
PrP 5UTR inh | -18 | x | -21 | -22 | -16 | -2
BJeLR lethal | -4 | x | -1 | -2 | 5 | 2

13: Cc1ccc(SCCc2ccc(C)nc2)cc1
14: NC(Cc1nc(-c2ccc(Cl)cc2)cs1)=NO
15: COCCC1CCCCN1C(=O)c1ccc(OC2CCN(C(C)=O)CC2)c(OC)c1 (stereo not drawn)
16: Cc1cccc(-n2ncc3c(NC(C)C)ncnc32)c1
17: CCOC1(OCC)N=C(N)C2(C#N)C(c3cccc(OC)c3OC)C12C#N (stereo not drawn)
18: COc1ccc(NC(=O)CSc2ccc(-c3sc(C)nc3C)nn2)cc1

Assay by compound | 13 | 14 | 15 | 16 | 17 | 18
Autofluor counter | 2520 | x | 5801 | 4382 | 3064 | 5985
Mtb hypoxia inh growth | 15 | 2 | 8 | 1 | 9 | 1
Sa ugtP lethal | 4 | 0 | -3 | -9 | 1 | -7
RN4220 kill | 2.7 | 2.9 | 1.8 | -0.3 | 9.9 | 1.4
Mtb hypoxia inh | 3 | 4 | 2 | 4 | 15 | -3
PrP 5UTR inh | -28 | x | -20 | -94 | -38 | -21
BJeLR lethal | 0 | x | 2 | 10 | 4 | -14

19: Cc1cc(C(=O)NCc2nc(-c3ccccc3)no2)ccc1[N+](=O)[O-]
20: Cc1ccc2c(Cl)cc(Cl)c(OCC(=O)N3CCOCC3)c2n1
21: COc1cc2c(cc1OC)C(C1c3cc4c(cc3CCN1C)OCO4)OC2=O (stereo not drawn)
22: O=C(N/N=C\c1ccc(OC(=O)c2cccs2)cc1)c1ccc(Cl)cc1
23: COCc1cc(=O)[nH]c(SCCS(=O)(=O)c2ccc(Cl)cc2Cl)n1

Assay by compound | 19 | 20 | 21 | 22 | 23
Autofluor counter | 4028 | 8875 | 2821 | 1934 | 4334
Mtb hypoxia inh growth | 8 | 6 | 4 | x | 13
Sa ugtP lethal | 2 | 3 | 3 | x | 1
RN4220 kill | 7.0 | 7.8 | 1.3 | x | 2.6
Mtb hypoxia inh | 3 | 4 | 17 | x | 2
PrP 5UTR inh | -57 | -14 | -24 | -9 | -23
BJeLR lethal | -2 | x | -14 | -3 | -2

From entry 15 as far as 23, copied from above:
15: COCCC1CCCCN1C(=O)c1ccc(OC2CCN(C(C)=O)CC2)c(OC)c1 (stereo not drawn)
16: Cc1cccc(-n2ncc3c(NC(C)C)ncnc32)c1
17: CCOC1(OCC)N=C(N)C2(C#N)C(c3cccc(OC)c3OC)C12C#N (stereo not drawn)
18: COc1ccc(NC(=O)CSc2ccc(-c3sc(C)nc3C)nn2)cc1
19: Cc1cc(C(=O)NCc2nc(-c3ccccc3)no2)ccc1[N+](=O)[O-]
20: Cc1ccc2c(Cl)cc(Cl)c(OCC(=O)N3CCOCC3)c2n1
21: COc1cc2c(cc1OC)C(C1c3cc4c(cc3CCN1C)OCO4)OC2=O (stereo not drawn)
22: O=C(N/N=C\c1ccc(OC(=O)c2cccs2)cc1)c1ccc(Cl)cc1

Assay by compound | 15 | 16 | 17 | 18 | 19 | 20 | 21 | 22
Autofluor counter | 5801 | 4382 | 3064 | 5985 | 4028 | 8875 | 2821 | 1934
Mtb hypoxia inh growth | 8 | 1 | 9 | 1 | 8 | 6 | 4 | x
Sa ugtP lethal | -3 | -9 | 1 | -7 | 2 | 3 | 3 | x
RN4220 kill | 1.8 | -0.3 | 9.9 | 1.4 | 7.0 | 7.8 | 1.3 | x
Mtb hypoxia inh | 2 | 4 | 15 | -3 | 3 | 4 | 17 | x
PrP 5UTR inh | -20 | -94 | -38 | -21 | -57 | -14 | -24 | -9
BJeLR lethal | 2 | 10 | 4 | -14 | -2 | x | -14 | -3

23: COCc1cc(=O)[nH]c(SCCS(=O)(=O)c2ccc(Cl)cc2Cl)n1

Assay by compound | 23
Autofluor counter | 4334
Mtb hypoxia inh growth | 13
Sa ugtP lethal | 1
RN4220 kill | 2.6
Mtb hypoxia inh | 2
PrP 5UTR inh | -23
BJeLR lethal | -2

Compound activity (PubChem BioAssay)
